FGF22 binding: binders of human FGF22 protein, primary screen, FGF22 synaptogenesis inhibitor project, biophysical, thermal shift, single point | recombinant FGF22 thermal shift, SYPRO orange fluorescence; percent of sucrose octasulfate shift, DMSO zero | actives 1.5% (n = 340,000) | calls only at 9.99 µM | AID 651658, 2012 | Fibroblast growth factor 22 (Homo sapiens), Q9HCT0;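 active = melting point raised past a set limit in the mean and every replicate; inconclusive = no clear call; three in four hits are not shown here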
Target sequence (Q9HCT0 whole entry, looked up): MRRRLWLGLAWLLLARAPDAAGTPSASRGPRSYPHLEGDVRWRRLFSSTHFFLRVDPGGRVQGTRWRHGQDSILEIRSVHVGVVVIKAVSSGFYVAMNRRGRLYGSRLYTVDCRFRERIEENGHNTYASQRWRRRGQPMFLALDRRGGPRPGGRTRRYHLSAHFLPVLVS
T cruzi inh: inhibitors of intracellular T. cruzi growth, primary screen, luminescence, NIH3T3 host cells. T. cruzi beta-gal in NIH3T3, 90 h. inhibition, % (concentration not given with the values). actives 1.4% (n = 300,000). AID 1885, 2009;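 active = mean inhibition across valid replicates above about 55%, limit read from the data; inconclusive = mean below that limit but half or more replicates reach it; inactive = mean below it, under half of replicates reach it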;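 note: signal also drops with host cell toxicity which is not excluded here; 0% = plate median of DMSO wells and 100% = zero luminescence signal; higher percent means less beta-gal luminescence so fewer parasites; stock transfer was 50 nL into about 50 µL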
Beta apoptosis: inhibitors of cytokine-induced beta cell apoptosis, primary screen, luminescence; protection from apoptosis, % (test concentration not listed); actives 0.8% (n = 300,000); INS-1E cytokine-induced death, ATP luminescence, 48 h; percent of positive-control rescue, neutral wells zero;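 active = all replicates at 75% or more, or half of them and the mean; inconclusive = half reach 75% but not the mean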;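 note: 0% = cytokine-treated negative control wells and 100% = positive control rescue; higher means more ATP so stronger rescue from cytokine killing; wells of about 40 µL received 100 nL stock; the first replicate is given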
Calb FLC: C. albicans growth inhibition with fluconazole, primary screen, CaCi-2 strain, Alamar Blue fluorescence. C. albicans CaCi-2 (fluconazole-resistant clinical isolate) + fluconazole, 48 h. growth inhibition, % (test concentration not listed). actives 0.57% (n = 300,000). AID 1979, 2009;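 active = most replicates above 75%; inconclusive = exactly half above 75%; inactive = most below 75%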;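 note: all wells also contain fluconazole at 8 µg/ml as a sub-toxic cotreatment; 0% = median of DMSO wells and 100% = median of geldanamycin control wells; wells of about 8 µL received 7.5 nL stock; the first replicate is given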
ALR H2O2 inh: inhibitors of human ALR sulfhydryl oxidase, primary screen, biochemical, H2O2 detection, HRP-luminol luminescence, single point; FAD-linked sulfhydryl oxidase ALR (Homo sapiens), P55789; purified ALR, DTT oxidation; inhibition, % (no concentration beside the values); actives 3.8% (n = 290,000); AID 485317, 2010;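 active = mean and each replicate at 75% or more; inconclusive = only one of the two met; inactive = neither met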;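 note: stock transfer was 7.5 nL into about 7.5 µL; 0% = neutral wells and 100% = wells with inactivated enzyme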
Target sequence (P55789 whole entry, looked up): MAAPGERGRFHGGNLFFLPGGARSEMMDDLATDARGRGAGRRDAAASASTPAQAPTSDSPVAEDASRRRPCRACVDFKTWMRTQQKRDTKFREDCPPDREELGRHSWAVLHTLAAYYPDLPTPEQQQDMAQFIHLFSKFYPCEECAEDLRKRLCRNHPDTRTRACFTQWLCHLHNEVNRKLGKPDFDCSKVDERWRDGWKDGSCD
RanGTP-Imp inh: inhibitors of RanGTP-importin-beta interaction, primary screen, biochemical, FRET, CFP-Ran, YFP-importin-beta, homogeneous | cell-free CFP-Ran/YFP-importin-beta FRET ratio | inhibition, % (no concentration beside the values) | actives 1.1% (n = 300,000);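 active = most replicates above 15%; inconclusive = exactly half above 15%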;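 note: 0% = DMSO wells and 100% = Ran loaded with GDP instead of GTP; wells of about 40 µL received 100 nL stock; the first replicate is given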
MLL AF4-AF9 inh: inhibitors of AF4 peptide binding to AF9, primary screen, biochemical, AlphaScreen, biotin-AF4 peptide, FLAG-AF9, single point. inhibition, % at 10 µM. actives 0.47% (n = 350,000). AID 651704, 2012. Protein AF-9 (Homo sapiens), P42568;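 active = every replicate reaching a set inhibition limit, whatever the replicate mean, cut at about 25% in these data; inconclusive = mean inhibition reaches that limit but some replicates miss it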;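 note: 0% = plate neutral control median and 100% = total signal loss; the record names both 10 and 1 µM as test concentration; the first replicate is given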
Target sequence (P42568 whole entry, looked up): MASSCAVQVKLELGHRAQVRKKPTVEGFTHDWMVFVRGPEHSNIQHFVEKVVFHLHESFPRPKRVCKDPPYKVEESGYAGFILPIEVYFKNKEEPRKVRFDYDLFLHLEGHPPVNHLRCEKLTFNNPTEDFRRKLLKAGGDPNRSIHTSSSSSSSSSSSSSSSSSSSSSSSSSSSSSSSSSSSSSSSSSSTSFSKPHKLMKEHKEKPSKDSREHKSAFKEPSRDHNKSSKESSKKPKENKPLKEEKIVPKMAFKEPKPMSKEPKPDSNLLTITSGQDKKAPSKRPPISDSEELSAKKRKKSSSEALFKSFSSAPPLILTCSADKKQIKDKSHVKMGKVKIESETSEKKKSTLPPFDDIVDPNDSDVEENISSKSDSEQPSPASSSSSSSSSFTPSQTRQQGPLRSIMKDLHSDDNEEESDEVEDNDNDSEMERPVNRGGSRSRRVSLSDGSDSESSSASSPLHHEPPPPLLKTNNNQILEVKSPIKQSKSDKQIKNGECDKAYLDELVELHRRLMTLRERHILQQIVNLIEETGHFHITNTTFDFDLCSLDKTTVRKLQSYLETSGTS
rRNA inh HTS: reduced GFP signal of wild-type E. coli, primary screen, bacterial rRNA inhibitor project, GFP/RFP fluorescence, OD600, single point. E. coli WT GFP vs humanized-ribosome RFP mutants, 24 h; stronger effect = lower value; DMSO median 0, no signal -100. GFP signal change (wild-type ribosome), % (test concentration not listed). actives 1.6% (n = 350,000). AID 720706, 2013;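 active = significant combined selectivity score with lowered wild-type GFP, culture density cut under 30%, mutant RFP and density less affected; inactive = any of these conditions unmet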; note: one replicate is shown; some compounds called inactive have numbers as strong as hits
rRNA inh HTS OD600: also measured in rRNA inh HTS; calls as there; OD600 change, %; measured here: OD600 growth;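 optical density of the mix in the first replicate; 0 = DMSO median and -100 = no signal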
rRNA inh HTS RFP: further read-out of rRNA inh HTS, marked with its call; RFP signal change, %; measured here: RFP humanized mutant strains;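 first replicate; 0 = DMSO median and -100 = no signal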
* hit, by the source's call; i = inactive; ? = inconclusive; · = not tested or not shown. The list is partial; rates above refer to the full screens.

Results follow in this order: FGF22 binding, T cruzi inh, Beta apoptosis, Calb FLC, ALR H2O2 inh, RanGTP-Imp inh, MLL AF4-AF9 inh, rRNA inh HTS, rRNA inh HTS OD600, rRNA inh HTS RFP
> O=C(NNC(=O)c1cc(Cl)ccc1O)c1cccc(S(=O)(=O)N2CCOCC2)c1
→ i, -8.1, 0.1, -0.5, 15.7, ·, 3.8, -14.2, -8.9, -1.7
> O=C1/C(=C/c2ccco2)SC(=S)N1CC1CCCO1 (stereo not given)
→ i, -22.2, -5.6, 15.4, -17.2, 2.1, ?, ·, ·, ·
> CC1=C(C)CC(C(=O)NNC(=O)c2cccc(Cl)c2)C(C(=O)O)C1 (stereo not given)
→ i, 3.4, -8.8, 2.6, 17.6, 0.0, 0.4, 11.3, 11.8, -2.5
> COc1ccc(COCC(O)CN2CCCC(C(F)(F)F)C2)cc1 (stereo not given)
→ i, 2.7, -5.6, -0.4, -0.5, ?, -0.8, 4.7, 11.4, -2.6
> Cc1c(C(=O)NCCn2ccc3ccccc32)cccc1[N+](=O)[O-]
→ i, -19.4, -0.3, -2.3, 25.9, 5.1, -2.4, -0.8, -8.8, -5.1
> Cc1[nH]nc2nc(SCC(=O)NCCC3=CCCCC3)n(-c3ccc(Br)cc3)c(=N)c12
→ i, 2.4, 92.6*, 1.8, -14.8, 1.9, -5.5, 3.4, 10.4, 0.0
> C/C(=N/Oc1nc(C)cc(C)n1)c1ccc(Br)cc1
→ ·, -22.6, 0.0, 7.4, 17.1, 2.3, ·, ·, ·, ·
> Cc1ccc(NC(=O)C2CCCN(c3cnccn3)C2)c(C)c1 (stereo not given)
→ i, 15.0, -1.2, -7.7, -4.5, 0.0, 1.1, -1.9, -3.7, -2.7
> CN(C(=O)COC(=O)c1cn(-c2ccccc2)nc1-c1ccccc1)C1CCS(=O)(=O)C1 (stereo not given)
→ i, -16.0, 0.3, 72.0, -5.6, 4.2, -1.1, -15.8, -17.8, 1.0
> COc1ccccc1CNC(=O)c1cc(C(C)C)nc2ccccc12
→ i, 0.6, 2.4, -6.7, -26.4, 5.6, -3.1, -11.2, -13.5, 4.2
> CC(=O)c1ccc(NC(=O)N2CCCC(C(=O)c3ccc4c(c3)OCO4)C2)cc1 (stereo not given)
→ i, 8.0, 2.7, -1.7, 0.3, ?, -1.7, -1.5, 6.8, 7.0
> COc1ccccc1OCC(=O)NC1CCSc2ccccc21 (stereo not given)
→ i, ·, 4.4, ·, -3.1, ·, 0.5, ·, ·, ·
> CCCC(=O)Nc1c2c(nn1-c1ccc([N+](=O)[O-])cc1)CS(=O)(=O)C2
→ i, -3.2, -2.8, 2.6, -13.3, -1.3, -2.4, 18.9, 13.9, 1.0
> Cc1csc(CNc2ncnc3ccc(-c4ccc5c(c4)OCCO5)cc23)c1
→ i, ·, 4.0, ·, -8.5, ·, 3.6, -24.0, -34.3, 5.8
> COCCCN(CC(=O)Nc1ccc(N2CCOCC2)cc1)S(=O)(=O)c1ccccc1
→ i, 10.0, 7.7, -6.0, 44.9, 8.2, -2.2, 9.0, 12.6, 3.3
> CC(=O)N1CCN(S(=O)(=O)c2cccc(C(=O)NCc3ccc(F)cc3)c2)CC1
→ i, ·, -1.8, ·, -2.0, ·, -0.8, 5.5, 8.2, -1.5
> CCCC(=O)Nc1nc(C)c(-c2csc(Nc3ccc(Cl)cc3)n2)s1
→ i, 33.3, 0.9, 13.9, -9.0, 2.3, 4.8, 4.5, 13.3, 4.6
> COc1ccccc1N1CCN(C(=O)Cc2cccs2)CC1
→ ·, 6.1, -1.1, -9.7, 51.5, 2.0, ·, ·, ·, ·
> COc1ccc(CC(=O)NC(C)c2nnc(SCCOc3ccc(OC)cc3)n2C)cc1 (stereo not given)
→ ·, -5.3, -0.5, -6.1, -9.8, 4.3, ·, -9.9, 5.2, -2.9
> O=C(c1cncc(Br)c1)N1CCCc2ccccc21
→ ·, -11.7, -1.7, -15.3, -15.6, 0.1, ·, ·, ·, ·
> Cc1c2cnn(CC(=O)NCCCN3CC(C)CC(C)C3)c(=O)c2c(C)n1Cc1ccccc1Cl (stereo not given)
→ i, 31.5, -5.8, -0.4, -4.7, 10.2, 8.1, 3.2, 1.4, 2.6
> CCC(C)N1CNc2c(c(=O)[nH]c(=S)n2-c2cccc(C)c2)C1 (stereo not given)
→ i, ·, 4.8, 32.5, -1.4, ·, -4.1, 4.9, -1.1, -0.6
> CCN(CC)S(=O)(=O)c1cc(NS(=O)(=O)c2c(Cl)cccc2Cl)ccc1C
→ i, 3.8, -2.9, 5.5, -7.7, 1.0, -1.8, 8.2, -2.1, 4.0
> Cc1cc(C)n(CC(=O)NNC(=O)c2ccc(S(C)(=O)=O)cc2)n1
→ i, ·, -0.2, ·, -0.7, ·, -2.7, 2.1, 9.5, -4.2
> Cn1c(N)c(C(=O)c2ccc(Cl)c(S(=O)(=O)N3CCCCCC3)c2)c(=O)n(C)c1=O
→ i, ·, 3.2, ·, -0.1, ·, 2.0, -5.3, -10.1, 0.9
> O=C(/C=C/c1cccc(F)c1)NC1CCN(Cc2ccccc2)CC1
→ i, 55.4*, 3.4, -5.7, -5.0, 4.6, 3.8, 3.7, -2.6, -0.5
> COc1ccccc1NC(=O)CN1CC(=O)Nc2ccccc21
→ i, 3.0, -1.6, 2.2, 0.9, 3.3, -0.1, -1.3, -7.9, -1.6
> CCOC(CCc1c(C)nc(NC(C)=O)[nH]c1=O)OCC
→ i, -14.6, 3.8, -6.9, 36.1, -0.5, -0.6, 9.9, 8.7, 0.2
> Cn1c(Cc2ccccc2)nnc1SCC(=O)Nc1ccc2c(c1)OCCO2
→ i, 11.5, 2.2, 3.1, -7.7, 5.9, 0.9, -7.0, -3.3, -11.7
> Cc1cccc(C)c1NC(=O)CSc1nnc(Cn2nnc(-c3ccccc3)n2)n1-c1ccccc1
→ ·, 19.5, -20.4, -5.1, ·, -3.6, ·, ·, ·, ·
> CNC(=S)N/N=C(\C)c1cccc([N+](=O)[O-])c1
→ i, -17.2, -2.8, -2.4, 0.4, -0.2, -3.5, -6.8, -1.2, -3.0
> CCOc1ccc(C(C)=O)cc1CSC(=N)N
→ i, -12.1, ·, ?, 69.4, -0.4, 0.9, 3.5, 8.1, 1.6
> CCOc1ccccc1CN1CCC(CO)(CCOc2ccccc2)CC1
→ i, 2.2, 1.2, -30.9, -13.8, 0.9, 0.1, 8.1, 7.7, 0.3
> Cc1ccc(C)c(NC(=O)Cn2nnc(-c3ccc(N4CCOCC4)cc3)n2)c1
→ i, -31.2, -1.0, -2.1, -4.5, -5.8, -1.3, 7.6, 13.5, 5.9
> O=C(C[N+]12CC[N+](CC(=O)c3ccc(F)cc3)(CC1)CC2)c1ccc(F)cc1
→ i, -10.6, 3.5, -0.4, -3.7, 1.4, -1.1, 4.5, 21.6, 2.6
> O=C(CSc1cn(CC(=O)N2CCOCC2)c2ccccc12)N1CCOCC1
→ i, -9.6, 3.7, 2.1, -1.4, 2.6, -6.3, 9.2, 12.1, 1.4
> CC(C)C(=O)Nc1ccc(NC(=O)c2cccc(F)c2)cn1
→ ·, -5.0, 1.0, -2.1, -31.3, -8.5, ·, ·, ·, ·
> CCOCCc1c(O)nc(SCC(=O)NCc2ccco2)[nH]c1=O
→ ·, -5.6, 1.0, -5.1, ·, 2.4, ·, ·, ·, ·
> COCC(=O)Nc1cc(OC)c(Cl)cc1OC
→ ·, -9.6, 1.5, -0.6, ·, 2.4, ·, ·, ·, ·
> CC(=O)Oc1cccc(C(=O)Nc2c[nH]c(=O)[nH]c2=O)c1
→ i, 3.8, -3.6, -4.3, -2.8, 0.5, -7.3, 16.8, 12.6, 0.9
> COc1ccc(C(C(=O)NC2CCCC2)N(CCCO)C(=O)Cn2nnc(-c3ccc(C)o3)n2)cc1 (stereo not given)
→ i, 3.7, -2.8, 22.4, -0.4, 7.9, -1.9, -5.4, -1.3, -1.9
> O=S1(=O)CCC(NC(=S)Nc2ccc(Cl)cc2)C1 (stereo not given)
→ ·, -24.0, -0.6, 1.3, 48.3, -1.9, ·, ·, ·, ·
> N#CCC1c2ccccc2CCN1C(=O)Nc1ccc(C(F)(F)F)cc1 (stereo not given)
→ ·, 2.0, 0.8, 1.3, 1.3, 4.6, ·, ·, ·, ·
> O=C(CN1C(=O)c2ccccc2S1(=O)=O)NCCSCc1c(F)cccc1Cl
→ i, 1.5, -5.6, 9.2, ·, -3.6, -1.2, -29.5*, -15.3*, 4.6*
> CCC(=O)N1CCc2cc(Br)cc(S(=O)(=O)N3CCC(C(=O)NC(C)C)CC3)c21
→ i, 10.8, -17.6, -4.7, ·, 2.2, -3.3, 3.3, 5.9, -2.1
> COc1ccc([C@H]2CC(=O)C=C(c3cccc(OC(F)(F)F)c3)C2)cc1
→ i, ·, -5.4, ·, -7.9, ·, -41.8, -5.4, -7.9, -5.3
> CCCN1CCc2nc(SCC(=O)Nc3ccc(C)c(Cl)c3)[nH]c(=O)c2C1
→ i, -7.8, -1.6, -0.7, 98.1*, 3.3, 3.4, 1.5, 1.4, -0.6
> CCCCN(C(=O)c1ccc2ccccc2c1)c1c(N)n(CCCC)c(=O)[nH]c1=O
→ i, ·, 4.5, ·, -4.2, ·, -0.8, 5.3, 1.7, 0.3
> CC(=O)c1ccc(NC(=O)CSc2nc(=O)n3cccc(C)c3n2)cc1
→ i, 1.7, ·, 6.0, -9.7, -2.0, -1.4, 1.7, -4.6, 1.6
> CCCc1cc(=O)oc2c(C)c(OCC(=O)N3CCC[C@@H]3C(=O)O)ccc12
→ i, -4.6, -15.8, -1.4, -14.7, 1.2, -4.2, ·, ·, ·
> O=C(CSc1nc2ccccc2[nH]1)NCCc1ccc(Cl)cc1
→ ·, -1.6, -6.2, -0.5, -18.3, 2.0, ·, ·, ·, ·

Screening data deposited in PubChem BioAssay by Broad Institute.
